High-throughput results from PubChem.
ugtP null kill = growth inhibition of ugtP-null S. aureus, primary screen, RN4220 ugtP deletion, OD600 | 16 h; some inactives read as strong as hits | growth inhibition, % (concentration not given with the values) | 330,000 tested, 0.54% active;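 active = z-score under -3 and OD600 up to 0.15 on both plates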;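 note: plate controls were untreated wells for no effect and antibiotic for full effect; wells of about 80 µL received 100 nL stock; the first replicate is given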
PrP UTR inh = inhibition of PrP 5' UTR reporter expression; 340,000 tested, 0.35% active; cell-based PrP 5' UTR mRNA reporter, plate reader; inhibition, % (concentration not given with the values);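 active = every replicate at 50% or more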;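 note: 0 = median of the neutral control wells; tested in H4 reporter cells; numbers are from one replicate; inactives centre near -14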
Bead autofluor = counter-screen for toxin protease inhibitors: compound fluorescence. fluorescence intensity (test concentration not listed). AID 624483. compound autofluorescence counterscreen, microsphere flow cytometry; stronger effect = higher value. 360,000 tested, 3.1% active;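 active = at least 3 SD above the mean of all compounds, about 16000 in these data; inconclusive = too few beads counted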;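 note: 100 nL of 1 mM stock went into each well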
RN4220 kill = growth inhibition of S. aureus RN4220, primary screen, OD600 | inhibition, % (no concentration beside the values) | AID 1259311, 2017 | 330,000 tested, 0.33% active | 16 h;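 active = z-score of -3 or lower and OD600 up to 0.18 on both plates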;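 note: plate controls were untreated cells for no effect and reference antibiotic for full effect; stock transfer was 100 nL into about 80 µL; one replicate is shown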
BJeLR viability = MLPCN primary cell-based screen for lethality selective to Ras in HRASV12 cells | 300,000 tested, 0.17% active | AID 1554, 2009 | inhibition, % (concentration not given with the values) | BJeLR (HRASV12) viability, CellTiter-Glo ATP luminescence, 48 h; reference of the scale not given here;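 active = replicate mean above 50%; inconclusive = above 50% but judged a plate artefact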;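 note: 50 nL library stock added to about 25 µL; numbers are from one replicate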
Mtb hypoxia inh = PubChem AID 1159583; fluorescence inhibition, % (no concentration beside the values); M. tuberculosis hypoxia-regulated fluorescent reporter, fluorescence; 300,000 tested, 0.1% active;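 active = 35 to 45% if threefold the growth effect, above 45% if 1.5-fold the growth effect; inactive = the rest, general growth blockers included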;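 note: wells of about 50 µL received 100 nL stock; 0% = vehicle wells and 100% = reference inhibitor wells; whole bacteria with a GFP reporter of the hypoxia response; strong numbers were not always called active; many hits fall short of the cut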
Mtb hypoxia inh growth = further read-out of Mtb hypoxia inh, marked with its call; growth inhibition, %; measured here: M. tuberculosis growth (absorbance);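 0% = vehicle and 100% = reference antibiotic; read after six days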
* = called active by the depositor; u = inconclusive; x = no result given; & = joins results of further samples.

Start of the listing, in advance, 3 compounds:
1. O=C(CN1CCN(c2ccccc2)CC1)Nc1cccc(C(F)(F)F)c1
2. CCCCN1C(=O)NC(c2cccc([N+](=O)[O-])c2)C(C(=O)OCC)=C1C (stereo not given)
3. CC1(C)C(=O)N(c2ccccc2F)C(=O)c2ccccc21

Screen / compound no.	1	2	3
ugtP null kill	9	0	6
PrP UTR inh	-39	-24	0
Bead autofluor	11458	3981	3904
RN4220 kill	0.5	2.1	4.2
BJeLR viability	11	0	-3
Mtb hypoxia inh	4	4	10
Mtb hypoxia inh growth	10	9	6

The list itself, previewed entries included:
1. O=C(CN1CCN(c2ccccc2)CC1)Nc1cccc(C(F)(F)F)c1
2. CCCCN1C(=O)NC(c2cccc([N+](=O)[O-])c2)C(C(=O)OCC)=C1C (stereo not given)
3. CC1(C)C(=O)N(c2ccccc2F)C(=O)c2ccccc21
4. O=C1CNC(=O)c2c(nc3n2CCC3)N1
5. Cc1cc(C(=O)NNC(=O)Nc2cccc(C(F)(F)F)c2)no1
6. O=C(Nc1cccnc1)c1ccc(Cl)cc1[N+](=O)[O-]
7. COc1nccnc1NS(=O)(=O)c1ccc(NC(=S)NC(=O)c2ccccc2F)cc1
8. COC(=O)c1cc2sccc2n1CC(=O)N1CCCc2ccccc21

Screen / compound no.	1	2	3	4	5	6	7	8
ugtP null kill	9	0	6	3	-6	8	52	6
PrP UTR inh	-39	-24	0	-22	-4	-9	-7	-25
Bead autofluor	11458	3981	3904	10984	3380	3583	2392	10087
RN4220 kill	0.5	2.1	4.2	2.1	-6.1	2.1	6.5	5.0
BJeLR viability	11	0	-3	-9	8	-4	-7	-5
Mtb hypoxia inh	4	4	10	11	0	-10	14	12
Mtb hypoxia inh growth	10	9	6	5	8	2	3	8

Some values from the entries so far:
#5 in PrP UTR inh shows -4
#3 in Bead autofluor shows 3904
#6 in PrP UTR inh shows -9
#2 in Bead autofluor shows 3981

(next part)
9. CC(=O)OC1CCC2C3CCC4=C(CC(F)C(=O)C4)C3CCC12C (stereo not given)
10. C=CCn1c(SCC#N)nc2sc(CC)cc2c1=O
11. C[C@]12c3[nH]c4ccc(Cl)cc4c3CCN1C(=O)[C@@H](CC(=O)NCCN1CCOCC1)C[C@@H]2C(=O)N1CCOCC1
12. Cc1ccc(-n2[nH]c(=O)c(-c3ccccn3)c2C)cc1
13. Cc1ccc2nc(SCC(=O)Nc3ccc4[nH]c(=O)[nH]c4c3)[nH]c2c1
14. Cc1csc(SCc2nnc(-c3ccc(Cl)cc3)o2)n1
15. Cc1onc(-c2ccccc2Cl)c1C(=O)N1CCC(C(N)=O)CC1
16. O=C(NC(c1ccccc1)c1ccccc1)C1CCCC1

Screen / compound no.	9	10	11	12	13	14	15	16
ugtP null kill	81	1	3	6	-2	-16	8	12
PrP UTR inh	-18	-19	-24	72*	-5	-86	-3	-31
Bead autofluor	3629	4653	3493	4587	u	3170	2841	2599
RN4220 kill	11	6.9	-1.0	6.2	2.8	5.2	7.6	2.8
BJeLR viability	x	2	x	4	x	-9	-14	-1
Mtb hypoxia inh	9	-2	-4	17	17	13	3	3
Mtb hypoxia inh growth	10	12	7	3	32	13	-4	4

17. COc1ccc(CN2C(CC(C)=O)c3ccc(C=CC(C)=O)cc3S2(=O)=O)cc1 (stereo not given)
18. O=C1CCN(C(=S)NCCc2ccccc2)CC1
19. O=c1c2c3nc4ccccc4nc3n(CCN3CCOCC3)c2ncn1CCN1CCOCC1
20. O=C(NCc1ccccc1)NCC12CC3CC(CC(C3)C1)C2
21. Cc1ccc(C(=O)Nc2cccc(C(F)(F)F)c2)cc1NC(=O)c1csc(-c2ccncc2)n1
22. COc1cc(NC(=S)Nc2ccc(N(C)C(C)=O)cc2)cc(OC)c1
23. O=C(O)c1ccc2c(c1)ncn2C1CCCCCC1
24. Cc1c(/C=C2\SC(=O)N(CC(=O)Nc3ccc4c(c3)OCO4)C2=O)c2ccccc2n1C

Screen / compound no.	17	18	19	20	21	22	23	24
ugtP null kill	1	2	6	2	18	-5	4	43
PrP UTR inh	x	-28	-4	-14	-2	-4	x	-11
Bead autofluor	x	4569	3355	4331	3857&4151	3881	11033	13103
RN4220 kill	5.1	5.8	3.2	3.1	12	2.2	3.0	0.4
BJeLR viability	x	4	x	-5	-2	-3	2	-15
Mtb hypoxia inh	12	11	-1	10	17	-2	1	2
Mtb hypoxia inh growth	13	7	7	19	7	9	-4	-3

25. Cc1ccc(S(=O)(=O)NNC(=S)Nc2cccc(C)c2C)cc1
26. c1coc(-c2nnc(-c3cccs3)o2)c1
27. N/C(=N\OC(=O)c1ccc([N+](=O)[O-])cc1Cl)c1ccccn1
28. CCN1CCN(c2ccc(S(=O)(=O)N3CCOCC3)cc2N)CC1
29. Cc1csc(N(C(=O)CCNC(=O)c2ccc([N+](=O)[O-])cc2)c2ccccc2)n1
30. c1ccc(Oc2cccc(Oc3ccccc3)n2)cc1
31. CCNc1nc(Oc2ccc(C#N)cc2)cc(C(F)(F)F)n1
32. CNC(=S)NN=C(C)c1cccc(C(F)(F)F)c1

Screen / compound no.	25	26	27	28	29	30	31	32
ugtP null kill	2	-1	x	12	6	29	14	3
PrP UTR inh	-12	-43	65*	1	-21	-20	-2	x
Bead autofluor	3964	u	3166	2926	2672	3089	2664	x
RN4220 kill	2.4	5.9	x	5.3	2.9	-0.3	5.5	3.6
BJeLR viability	4	1	-2	x	-1	5	5	x
Mtb hypoxia inh	6	10	x	7	4	6	0	18
Mtb hypoxia inh growth	-3	20	x	2	9	3	4	8

A different layout for 4 compounds above.
item | Structure | ugtP null kill | PrP UTR inh | Bead autofluor | RN4220 kill | BJeLR viability | Mtb hypoxia inh | Mtb hypoxia inh growth
17 | COc1ccc(CN2C(CC(C)=O)c3ccc(C=CC(C)=O)cc3S2(=O)=O)cc1 (stereo not given) | 1 | x | x | 5.1 | x | 12 | 13
18 | O=C1CCN(C(=S)NCCc2ccccc2)CC1 | 2 | -28 | 4569 | 5.8 | 4 | 11 | 7
19 | O=c1c2c3nc4ccccc4nc3n(CCN3CCOCC3)c2ncn1CCN1CCOCC1 | 6 | -4 | 3355 | 3.2 | x | -1 | 7
20 | O=C(NCc1ccccc1)NCC12CC3CC(CC(C3)C1)C2 | 2 | -14 | 4331 | 3.1 | -5 | 10 | 19

Continued.
33. COCCSc1nc2c(c(=O)[nH]c(=O)n2C)n1CCC(C)C
34. O=C(NN=C1CCCc2ccccc21)c1cccc(Br)c1
35. Cn1c(=O)c2c(ncn2CC(=O)N/N=C/c2cn[nH]c2-c2ccc(F)cc2)n(C)c1=O
36. C/C(CCC(C)C)=N\Nc1cc(C)c2ccccc2n1
37. Cc1c(-c2ccccc2)oc2c(C(=O)N3CCN(c4ccccc4F)CC3)cccc2c1=O
38. CCn1c(COc2ccc(C)cc2)nnc1SCC(=O)C(C)(C)C
39. COC(=O)CSc1nnc(-c2cccnc2)n1-c1cccc(OC)c1
40. Cc1c(Cl)cccc1NC(=O)CSCc1cc(=O)[nH][nH]1

Screen / compound no.	33	34	35	36	37	38	39	40
ugtP null kill	6	10	x	x	5	-1	3	-2
PrP UTR inh	-12	x	-25	-2	-28	2	-27	-36
Bead autofluor	5861	x	4490	4214	2073	4317	7937	10953
RN4220 kill	3.9	19	x	x	11	2.8	5.7	1.2
BJeLR viability	18	x	-1	-10	7	9	-9	-2
Mtb hypoxia inh	1	22	x	x	-4	x	-1	0
Mtb hypoxia inh growth	3	-1	x	x	1	x	9	5

41. Cc1ccc(S(=O)(=O)C(C#N)c2nc3ccccc3nc2N2CCCC2)cc1C (stereo not given)
42. COC(=O)c1ccc(OCC2c3cc(OC)c(OC)cc3CCN2C(C)=O)cc1 (stereo not given)
43. COc1ccc(S(=O)(=O)N2CCC(C(=O)N[C@@H](C)C(=O)NCc3ccncc3)CC2)cc1
44. NC(=O)c1cccc(-c2noc(-c3ccccc3F)n2)c1
45. CCCCn1c(O)c(C(CC)=NCc2cc(OC)cc(OC)c2)c(=O)[nH]c1=O
46. CCN1C(C)=C(C)S/C1=C1\SC(=S)N(N)C1=O
47. CC1=C(C)CS(=O)N(c2ccc(S(N)(=O)=O)cc2)C1 (stereo not given)
48. O=C(CSc1ccccc1)Nc1cccnc1

Screen / compound no.	41	42	43	44	45	46	47	48
ugtP null kill	-15	3	8	1	-10	6	7	4
PrP UTR inh	-26	-26	3	53	-2	0	-1	-11
Bead autofluor	19432*	4054	4242	3741	22230*	3990	4001	4708
RN4220 kill	-0.3	12	3.5	8.7	5.5	4.3	1.5	4.7
BJeLR viability	x	11	-6	x	0	-1	-6	-5
Mtb hypoxia inh	-6	-7	-2	0	7	5	x	7
Mtb hypoxia inh growth	4	8	-2	1	8	12	x	8

49. CC(C)(C)c1ccc(COn2ccnc2)cc1
50. CC(=NNC(=O)Cc1cccn1C)c1cccs1
51. CCOP(=S)(OCC)Oc1cc(C)oc(=O)c1Cl
52. Cc1cccn2c(=O)nc(SCC(=O)N3CCCC3)nc12
53. Nc1nnn(CC(=O)NN=Cc2cccc(Cl)c2)n1
54. COC(=O)CCC(C)N1CCC(Oc2ccc(C(=O)N3CCCC3)cc2)CC1 (stereo not given)
55. C/C(=C/Cc1c(O)cc2oc(C)cc(=O)c2c1O)COC1OC(CO)C(O)C(O)C1O (stereo not given)
56. O=C(NC(=S)Nc1nc(-c2ccc(Cl)cc2)cs1)c1cccs1

Screen / compound no.	49	50	51	52	53	54	55	56
ugtP null kill	-9	-1	4	5	-5	9	0	-1
PrP UTR inh	-27	x	-18	-20	x	-14	-7	-3
Bead autofluor	3458	x	6920	u	x	4718	4026	4835
RN4220 kill	1.7	-2.2	5.5	0.2	0.5	1.6	-13	-1.9
BJeLR viability	0	x	-9	1	x	-9	x	2
Mtb hypoxia inh	0	-4	10	5	-2	-1	9	13
Mtb hypoxia inh growth	3	3	1	0	-2	-5	5	-2

57. CCN(CC)c1ccc(C=NN2CCN(Cc3ccccc3Cl)CC2)c(O)c1
58. CC(CC(=O)NC1CCCCC1)=NNC(=O)c1ccc(Br)cc1
59. O=C(COC(=O)/C=C/c1ccc(Br)o1)Nc1ccccc1F
60. O=c1[nH]c(CN2CCCCC2)nc2c1C1(CCCCC1)Cc1ccccc1-2
61. COc1ccc(CN2CCN(C(=O)c3ccco3)CC2)cc1OCc1ccccc1
62. O=C(O)c1ccccc1NCc1ccco1
63. Cc1nn(C)cc1C=NNC(=O)Cn1nnc(N)n1
64. Clc1ccc(Nc2ccc(-n3ccnc3)nn2)cc1Cl

Screen / compound no.	57	58	59	60	61	62	63	64
ugtP null kill	3	-1	-9	1	8	5	0	-37
PrP UTR inh	x	x	x	-13	0	-17	x	-15
Bead autofluor	x	x	x	4768	2423	2858	x	u
RN4220 kill	22	1.6	2.6	-1.5	9.4	0.1	3.4	-20
BJeLR viability	x	x	-1	-3	-3	4	x	-4
Mtb hypoxia inh	8	-8	-1	x	-9	10	-12	1
Mtb hypoxia inh growth	10	10	3	x	3	-8	5	0

65. Cc1cccc(N(C(=O)c2csnn2)C(C(=O)NC2CCCCC2)c2ccncc2)c1 (stereo not given)
66. COc1ccc(CNC(=O)COC(=O)CCCOc2ccc(Cl)cc2Cl)cc1OC
67. CSc1ncccc1C(=O)OCC(=O)NCCC1=CCCCC1
68. NC(=O)NN=Cc1ccc(-c2ccc(S(=O)(=O)Nc3ncccn3)cc2)o1
69. CCN(CC)CC(O)CN1c2ccccc2Sc2ccccc21 (stereo not given)
70. CCOc1cc(C)nc(NCc2ccccc2)n1
71. COc1cccc(-n2nc(C(=O)NCC3CCCO3)c3ccccc3c2=O)c1 (stereo not given)
72. COc1ccccc1NC(=O)/C=C/c1cc([N+](=O)[O-])ccc1OC(F)F

Screen / compound no.	65	66	67	68	69	70	71	72
ugtP null kill	5	2	2	4	-4	-9	2	5
PrP UTR inh	-31	-8	-6	x	-10	-6	-32	-2
Bead autofluor	3958	4199	6636	x	4053	3552	5979	6184
RN4220 kill	2.7	2.3	1.5	0.4	4.0	-6.4	1.6	9.2
BJeLR viability	-6	2	-2	x	-21	11	3	16
Mtb hypoxia inh	-4	5	1	15	6	x	5	11
Mtb hypoxia inh growth	1	12	11	6	9	x	5	2
